HSD17B inh: HSD17B dehydrogenase inhibition | 75,000 tested, 7.6% active | recombinant HSD17B10, NADH fluorescence kinetic; many of its hits are not listed in these tables | Q99714 | AID 893 | Potency, µM (titrated, usually from 57.1 µM), for inactives: at the top dose activity change, negative = inhibition, hits mostly inhibitors; active = well fitted inhibition curve with a large enough effect; inconclusive = small, poorly fitted or top-dose-only effect; inactive = no such curve, though single readings can be large or run the other way;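 also: the protocol describes HADH2 (HSD17B10) and not the HSD17B4 of the title; nearly all actives have a fitted effect of over 70% in size; most hits overshoot -100% by far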
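His-tagged E. coli-expressed HADH2 at 20 nM in 100 mM Tris-HCl pH 9.0 with 0.01 % Tween-20, preincubated 15 min with compound at room temperature. Reaction with 1 mM NAD+ and 90 uM beta-hydroxybutyryl coenzyme A; NADH fluorescence (360/450 nm) read kinetically over 4 min, last minus first point.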
* hit, by the source's call; ? = inconclusive; & = joins results of further samples; [ ] = dose if it differs, or a comment. % is scaled to controls: 0 for no effect and ±100 for the full control effect; potency is read from the fitted curve at half-maximal effect.

Start of the data: the first 2 entries, to show the layout:
#	Molecule	HSD17B inh
1	O=C(CCNC(=O)Cn1ccc2ccccc2c1=O)NCCN1CCc2ccccc2C1	14%
2	Cn1cc(Cl)c(C(=O)NC2CCCC2)n1	0%

Main list, from the first entry:
#	Molecule	HSD17B inh
1	O=C(CCNC(=O)Cn1ccc2ccccc2c1=O)NCCN1CCc2ccccc2C1	14%
2	Cn1cc(Cl)c(C(=O)NC2CCCC2)n1	0%
3	COC(=O)C(C)Sc1nnc(Cc2cc(=O)[nH]c(=O)[nH]2)n1-c1ccc(OC)cc1 (stereo not drawn)	14%
4	CC(Oc1ccccc1)C(=O)Nc1ccc(C(N)=O)cc1 (stereo not drawn)	3%
5	CC1CC(C)CN(CCCNC(=O)CC2Oc3ccccc3NC2=O)C1 (stereo not drawn)	1%
6	O=C(CS(=O)(=O)Cc1ccccc1)N1CCc2ccccc21	11%
7	COc1ccc(C(OC(=O)c2ccco2)C(=O)NC2CCCCC2)cc1OC (stereo not drawn)	3%
8	COc1cc(NC(=O)COc2ccc(-n3cnnn3)cc2)c(OC)cc1Cl	-3%
9	COc1cc(C2=NOC(C(=O)NCc3ccco3)C2)cc(OC)c1OC (stereo not drawn)	-1%
10	Cc1nn(-c2ccccc2)c2sc(C(=O)N(CC(=O)NC(C)(C)C)Cc3ccco3)cc12	-29%
11	CCCCOC(=O)CSc1nnc(N)s1	-5%
12	Cc1ccc(S(=O)(=O)c2c(C)nn(C(C)(C)C)c2OC(=O)c2cccs2)cc1	5%
13	COc1cccc(C2=NOC(C(=O)NCc3ccccn3)C2)c1 (stereo not drawn)	12%
14	COc1ccc(OC)c(S(=O)(=O)Nc2cc(OC)c(Cl)cc2OC)c1	-4%
15	COC(=O)c1cccc(N(C(=O)CNC(=O)c2ccco2)C(C(=O)NC2CCCC2)c2ccco2)c1 (stereo not drawn)	-1%
16	COCCCNC(=O)CN(Cc1ccc(Cl)cc1)S(C)(=O)=O	14%
17	COc1ccccc1NC(=O)CC(NCc1ccccc1)C(=O)O (stereo not drawn)	9%
18	c1ccc(Nc2ccccc2)cc1	?
19	COC(=O)CSc1nc2ccc(NC(=O)CSc3nnnn3Cc3ccccc3)cc2s1	-10%
20	CC(=O)Nc1ccc(S(=O)(=O)n2nc(C)cc2C)cc1	-2%
21	COc1ccccc1NC(=O)Cc1noc(CN(C)Cc2cccs2)n1	-2%
22	CCOC(=O)N1CCC(NC(=O)CCC(=O)N2CCOc3ccc(C)cc32)CC1	11%
23	Cn1c(=O)cc(OCCCC(=O)NCCN2CCN(c3ccccc3F)CC2)c2ccccc21	3%
24	CCOC(=O)c1c(C)[nH]c(C(=O)COC(=O)c2ccc(F)c(S(=O)(=O)N3CCOCC3)c2)c1C	-2%
25	CCOC(=O)N1CCN(S(=O)(=O)c2ccc(OC)c3ccccc23)CC1	-5%
26	Cn1c(=O)[nH]c(=O)c2c1nc(CN1CCN(c3ccc(F)cc3)CC1)n2CCc1ccccc1	1%
27	COc1ccccc1C(=O)Nc1ccc2c(c1)OCO2	1%
28	CCc1ccc(NC(=O)Nc2cccs2)cc1	?
29	Cc1cccc(N2CCCn3c2nc2c3c(=O)n(CC(=O)OCc3ccccc3)c(=O)n2C)c1	9%
30	Cc1ccc(-c2nnc(N(C)C(=O)C3CCCO3)s2)cn1 (stereo not drawn)	182%[activator]
31	CCOC(=O)N1CCN(C(=O)c2nc3ccccc3s2)CC1	-8%
32	Cn1nc(-c2ccc(Cl)cc2)c2cc(C(=O)N3CCN(c4ccccc4)CC3)sc21	-16%
33	C=CCSc1nnc(-c2ccccc2NC(C)=O)c(=O)[nH]1	-11%
34	Cc1ccc(S(=O)(=O)N2CCN(C(=O)CSc3nnnn3C)C2)cc1	7%
35	COc1ccccc1-c1cc(N)n[nH]1	?
36	Brc1ccc(CSc2ncn[nH]2)cc1	-8%
37	CN(C)c1ccc(C(=O)c2ccccc2C(=O)O)c(O)c1	-4%
38	CC(=O)Nc1nc(CC(=O)c2ccccc2)cs1	-7%
39	Cc1ccc(S(=O)(=O)N2CCC(C(=O)N[C@@H](C)C(=O)Nc3ccc4c(c3)OCO4)CC2)cc1	-7%
40	COc1cc(SC)ccc1C(=O)Nc1ccon1	?
41	COc1ccccc1C(=O)Nc1ncc2c(n1)CC(c1ccco1)CC2=O (stereo not drawn)	-22%
42	CCNC(=O)c1ccccc1NC(=O)c1cccc(S(=O)(=O)N2CCC(C)CC2)c1	?
43	COc1ccc(Br)cc1C(=O)O	1%
44	Cc1cc(-n2c(SCC(=O)NCc3cccs3)nc3n[nH]c(C)c3c2=N)ccc1Cl	?
45	CCN(CC)CCCNC(=O)Cn1cc2c(n1)CCC(C)C2 (stereo not drawn)	5%
46	CC1(C)C(=O)Nc2ccccc2N1C(=O)CN1C(=O)c2ccccc2C1=O	-4%
47	Cc1ccc(S(=O)(=O)NCC(=O)N(CCc2ccccc2)CC(=O)NCc2ccco2)cc1	-15%
48	COc1cccc(OC)c1C(=O)Nc1ccc(S(=O)(=O)Nc2cc(C)nc(C)n2)cc1	4%
49	O=C(Cn1nnc(-c2ccccc2)n1)NCc1ccc2c(c1)OCO2	-2%
50	COC(=O)C1=C(C)NC(=O)C1(Nc1nccs1)C(F)(F)F (stereo not drawn)	32µM*
51	N#Cc1ccc(Sc2nc3ccccc3[nH]2)cc1C#N	0%
52	CCOC(=O)N1CCC(N2Cc3cccc(C(=O)NCc4ccc(C)cc4)c3C2=O)CC1	-7%
53	Clc1ccc(Cc2nnc(-c3ccccc3Br)o2)cc1	-6%
54	CCOc1cccc(NC(=O)CC#N)c1	5%
55	Cc1ccccc1-n1c(C)nnc1SCC(=O)NCC1CCCO1 (stereo not drawn)	7%
56	Cc1nn2c(N3CCCC3)cc(C(C)C)nc2c1-c1ccccc1	32µM*
57	C1N2CN3CN1CN(C2)C3	-2%
58	COc1ccc(NC(=O)C2CCC(C)(C(=O)O)C2(C)C)cc1 (stereo not drawn)	3%
59	COc1ccc(-c2nnc(SCC(=O)OC3CCCCC3)o2)cc1OC	-7%
60	CCOC(=O)CCCCC(=O)c1[nH]c(=O)[nH]c1CSc1nc(-c2ccccc2)c(C#N)c(=O)[nH]1	-25%

(continued)
#	Molecule	HSD17B inh
61	COc1ccc2c(c1)-c1nc(NC(=O)c3ccco3)sc1CC2	-7%
62	CCOCCCNC(=O)c1ccccc1SCC	10%
63	CC(=O)c1c(N2CCCCC2)nc(=O)n(-c2ccccc2)c1C	9%
64	O=C(OCC(=O)N1CCOCC1)c1ccccc1SCC(=O)N1CCCC1	-8%
65	Cc1cc(=O)n2nc(N3CCC(C(=O)NCc4cccnc4)CC3)sc2n1	9%
66	CCOc1ccccc1OCC(=O)Nc1nnc(COC)s1	-10%
67	CN(C)c1ccc(-c2nnc(-c3ccc(S(=O)(=O)C(F)F)cc3)o2)cc1	10%
68	CCCCNC(=O)CSc1nc2ccccc2c(=O)n1C1CCCC1	-2%
69	COc1cccc(-c2cncnc2NCc2cnc(C)cn2)c1	6%
70	Cn1c(=O)c2ccccc2n(Cc2ccccc2F)c1=O	?
71	Cn1c(Cc2ccccc2)nnc1SCC(=O)Nc1ccccc1N1CCOCC1	3%
72	Cc1ccc2cccc(SCC(=O)N3CCOCC3)c2n1	32µM*
73	COc1ccc(C(=O)CC(=O)c2c(O)cc(OC)cc2OC)cc1	4%[11.4 µM]
74	CC1(c2ccccc2)NC(=O)N(CCN2C(=O)c3ccccc3C2=O)C1=O (stereo not drawn)	2%
75	COC(=O)CSc1nc2c(c(-c3ccco3)c1C#N)CCCC2	20µM*
76	CCN1CCN(c2ncc(C(=O)Nc3cc(Cl)c(OC)cc3OC)c3ccccc23)CC1	3%
77	C=CCn1c(SCC(=O)Nc2ccccc2C)nnc1-c1ccncc1	4%
78	O=C(CCCn1c(=O)c2sccc2n(Cc2ccc(F)cc2)c1=O)NCc1ccco1	5%
79	Cc1onc(-c2c(Cl)cccc2Cl)c1C(=O)Nc1ccc2c(c1)OCCO2	-10%
80	CCCCCC(C)n1[nH]c(=O)c2c(C)cc(C)nc21 (stereo not drawn)	6%

Four entries already listed, ordered by molar mass, ascending.
#	Molecule	HSD17B inh
11	CCCCOC(=O)CSc1nnc(N)s1	-5%
72	Cc1ccc2cccc(SCC(=O)N3CCOCC3)c2n1	32µM*
6	O=C(CS(=O)(=O)Cc1ccccc1)N1CCc2ccccc21	11%
17	COc1ccccc1NC(=O)CC(NCc1ccccc1)C(=O)O (stereo not drawn)	9%

More records:
#	Molecule	HSD17B inh
81	CCOc1ccc(Cc2nccc3cc(OCC)c(OCC)cc23)cc1OCC	-4%
82	CCOC(=O)N1CCC(NC(=O)CN2C(=O)CCSc3ccccc32)CC1	6%
83	COc1cc(C2CC(=O)NC3=C2C(=O)CC(C)(C)C3)ccc1O (stereo not drawn)	-12%
84	Brc1ccc(C2=Nn3c(nnc3-c3cccnc3)SC2)s1	-1%
85	O=P(O)(O)c1ccccc1OCCCCCOc1ccccc1P(=O)(O)O	3%
86	CCOC(=O)C1C(C#N)=C(N)OC(C)=C1c1ccncc1 (stereo not drawn)	0%
87	O=C(COc1ccc(Br)cc1)N1CCCCCC1	3%
88	O=C(Nc1ccc(Cl)cc1)Nc1ccc(N2CCOCC2)cc1	2%
89	CC(=O)Nc1ccc(S(=O)(=O)N2CCN(CC(=O)NC3CCCC3)CC2)cc1	3%
90	Cc1cc(C)c2cc(CN(CC3CCCO3)C(=O)NC3CCCCC3)c(=O)[nH]c2c1 (stereo not drawn)	2%
91	CS(=O)(=O)Nc1ccc2c(c1)nc1n2CCOC1	-23%
92	CC1(C)CNC(=O)C=C(c2ccccc2)C1	11%
93	CCOC(=O)N1CCC(Nc2c(N3CCN(c4cccc(C(F)(F)F)c4)CC3)c(=O)c2=O)CC1	-5%
94	COCc1cc(C)nc2sc(C(=O)OC(C)C)c(N)c12	0%
95	COC(=O)c1[nH]c2cc(OC)ccc2c1NC(=O)c1ccc2c(c1)OCO2	66%[activator]
96	Cc1cc(NC(=O)c2oc3ccccc3c2C)ccc1-n1cnnn1	?
97	CCc1nc2ccccc2c(=O)n1NC(=O)c1c(O)c2ccccc2[nH]c1=O	-16%
98	C/C(N)=C(/C#N)C(=O)CSc1nnnn1-c1ccc(C)cc1C	-9%
99	COCc1nn2c(N)c(C#N)cnc2c1-c1ccccc1	-13%
100	Cc1ccc(C(=O)O)c(C(=O)Nc2nc(C)cs2)c1	-3%
101	O=C(NCCc1ccccn1)c1ccc(S(=O)(=O)N2CCCCCC2)cc1	12%
102	O=S(=O)(Nc1ccc2c(c1)OCCO2)c1cccs1	2%
103	CCCCSc1nnc(-c2ccccc2N)c(=O)[nH]1	1%
104	CCOc1ccc(-c2n[nH]c(C)c2Oc2ccccc2OC)c(O)c1	4%
105	CC(C)CNS(=O)(=O)c1ccc(CCC(=O)N2CCN(Cc3ccccc3)CC2)cc1	7%
106	COC(=O)c1sccc1NC(=O)c1ccoc1C	-2%
107	NC(N)=NC(N)=Nc1cccc(Cl)c1	0%&3%
108	N[C@@H](C(=O)O)c1ccc(C(=O)O)c(C(=O)O)c1	2%&-7%&4%
109	CCN1CCN(S(=O)(=O)c2cc(OC)ccc2OC)CC1	-20%
110	O=C(O)CCc1ccc(-c2cccs2)n1NC(=O)c1ccccc1Br	-24%
111	CCCCCCCCCCCCCCCCOP(=O)([O-])OCC[N+](C)(C)C	1%
112	CC(=O)Nc1ccc(S(=O)(=O)NCC2CCC(C(=O)N3CCN(c4ccccn4)CC3)CC2)cc1 (stereo not drawn)	?
113	NCC1OC(n2cnc3c(=O)[nH]c(N)nc32)C(O)C1O (stereo not drawn)	5%
114	CCN=C(Nc1cccc(F)c1)SC1CC(=O)N(c2ccc(OC)cc2)C1=O (stereo not drawn)	1%
115	COc1cccc(OCCOCCN(C)CCO)c1	4%
116	CCn1c(=O)n(CC(=O)N2CCN(c3ccccc3F)CC2)c(=O)c2ccccc21	-23%
117	COc1ccc(-n2c(=O)c(C)nc3cnc(N4CCOCC4)nc32)cc1	-9%
118	COc1cc(OC)c(NC(=O)CCc2nc(-c3cccs3)no2)cc1Cl	-7%
119	CCOC(=O)c1cnc(-n2nc(C)cc2C)nc1NCc1ccc2c(c1)OCO2	-1%
120	O=C(CN1CCOCC1)N1CCCc2c1c(=O)oc1ccc(OCc3ccccc3)cc21	32µM*
121	CCS(=O)(=O)N1CCN(Cc2nc3ccccc3c(=O)[nH]2)CC1	7%
122	COc1cc(C2N=C(c3ccccc3)NO2)cc(Br)c1O (stereo not drawn)	-3%
123	CSCC[C@@H](C(=O)Nc1ccc2c(c1)OCCO2)N1Cc2ccccc2C1=O	7%
124	CCOC(=O)c1c(C)c(C(=O)NCCCN2CCCC2=O)c(C)n1CC	-6%
125	O=C(Oc1cccc(-n2cnnn2)c1)c1sc2ccccc2c1Cl	-3%
126	COc1cccc(-c2cc(C(=O)Nc3cnn(Cc4ccc(F)cc4)c3)no2)c1	25µM*
127	CCNc1nc(NCC)n2c(SCc3ccc(F)cc3)nnc2n1	1%
128	CCC(=O)Nc1cc(C)c(NC(=O)C23CC4CC(CC(C4)C2)C3)cn1	2%
129	Cn1c(=O)c2[nH]c(CSCc3ccccc3)nc2n(C)c1=O	5%[11.4 µM]
130	CCn1c(SCC(=O)c2ccc(NS(=O)(=O)c3ccccc3)cc2)nnc1-c1cccs1	-23%
131	COCCn1nnnc1C(c1cc(OC)ccc1OC)N1CCc2ccccc2C1 (stereo not drawn)	-13%
132	COc1ccc2nc(/N=C\N(C)C)sc2c1	12%

Screening data: PubChem, National Center for Advancing Translational Sciences (NCATS)

Not all compounds are listed; rates above refer to the full screens.
